Source: PubChem (National Center for Advancing Translational Sciences (NCATS))
Vaccinia Venus: inhibitors of vaccinia virus (Venus reporter); 0.46% of 330,000 active; Potency, µM (series often up to 36.5 µM), inactives show at the top dose activity change, negative = inhibition, usual class: inhibitors; Vaccinia virus Venus reporter expression, fluorescence; active means well fitted inhibition curve with a large enough effect; inconclusive means small, poorly fitted or top-dose-only effect; inactive means no such curve, though single readings can be large or run the other way; tested in A549 cells; also: nearly all actives have a fitted effect of over 30% in size; inactives centre near -10
VACV mCherry inh: vaccinia inhibition (mCherry reporter); AID 720579; 0.63% of 310,000 active; Potency, µM (highest dose often 36.5 µM), for inactives: at the top dose activity change, negative = inhibition, most hits filed as inhibitors; Vaccinia virus mCherry reporter infection, fluorescence; about a quarter of the inactives have no number; active = well fitted inhibition curve with a large enough effect; inconclusive = small, poorly fitted or top-dose-only effect; inactive = no such curve, though single readings can be large or run the other way; tested in A549 cells; also: nearly all actives have a fitted effect of over 35% in size; inactives centre near -10
Starred values were filed as active, the others as inactive; i = inactive; u = inconclusive; x = no result given; & = joins results of further samples; [ ] = dose if it differs, or a comment. % is scaled to controls: 0 for no effect and ±100 for the full control effect; potency is read from the fitted curve at half-maximal effect.

SMILES	Vaccinia Venus	VACV mCherry inh
COC(=O)c1ccccc1S(=O)(=O)N(Cc1cc2ccc(OC)cc2[nH]c1=O)CC1CCCO1 (configuration not stated)	-14%	-8%
Cc1ccc(S(=O)(=O)N(C)c2nc3ccccc3[nH]c2=S)cc1	-8%	i
COC(=O)c1ccccc1S(=O)(=O)N1CCC(C(=O)OC(C)C(=O)NC(N)=O)CC1 (configuration not stated)	-22%	i
CCN(CC)C(=O)c1cc2cc(Br)ccc2oc1=O	-8%	i
O=[N+]([O-])c1ccccc1-c1ccc(/C=N/n2cnnc2)o1	-5%	-18%
Cn1c(OCC2CCCO2)nc2cc(-c3ccccc3)sc2c1=O (configuration not stated)	-5%	24%
O=c1ccc2cc(S(=O)(=O)Nc3ccccc3F)ccc2o1	-8%	-9%
NNC(=O)c1ccc(COc2ccc(Br)cc2)o1	-23%	u
O=C(Nc1ccc(F)c(Cl)c1)c1cc(S(=O)(=O)N2CCCc3ccccc32)ccc1F	-3%[7.34 µM]	-4%[7.34 µM]
Cn1c(O)c(C=NC2CCN(Cc3ccccc3)CC2)c(=O)n(C)c1=O	0%	i
CN(CC(=O)Nc1ccccc1Cl)C(=O)COC(=O)CN1C(=O)NC2(CCCC2)C1=O	-9%	-4%
COc1ccc(NC(=O)c2cc3cc(C)ccc3n2C)c(OC)c1	-12%	i
CC(=O)N1CCN(CCN=CC2=C(O)CC(c3cccs3)CC2=O)CC1 (configuration not stated)	-8%	x
COc1ccc(CCNC2(C#N)CCCCC2)cc1OC	-2%	-13%
CCCC(c1c(C)n(C)n(-c2ccccc2)c1=O)c1c(C)n(C)n(-c2ccccc2)c1=O	-9%	-17%
CCOc1cc(N2CCOCC2)c(OCC)cc1NC(=O)CSc1nccc(C)n1	-14%	-2%
Cc1cc(NC(=O)CN2CCC(O)CC2)nc2c1c(=O)oc1ccccc12	15%	22%
CC(C)[C@H](CN1CCC[C@H]1CN1C(N)=NC[C@@H]1Cc1ccccc1)N1C[C@@H](Cc2ccccc2)N(CCc2ccc(Cl)c(Cl)c2)C1=N	-19%	-6%
COc1ccc2c(CC(=O)OCC(=O)c3ccccc3OC)coc2c1	-10%	i
CCc1ccc(NC(=O)c2cnc3sc(N4CCCC4)nn3c2=O)cc1	u	u
CCSCCOC(=O)C1=C(C)NC(=O)NC1c1cc(OC)ccc1OC (configuration not stated)	-15%	-24%
COc1ccccc1CNc1ncncc1-c1ccoc1	-2%	-6%
CCOC(=O)COc1nc(-c2ccco2)cc(-c2ccco2)c1C#N	-23%	i
CNCCOCC(O)CSc1ccccc1 (configuration not stated)	2%	-4%[1.46 µM]

Record cards, from the list above. Order of values: Vaccinia Venus | VACV mCherry inh
CC(C)[C@H](CN1CCC[C@H]1CN1C(N)=NC[C@@H]1Cc1ccccc1)N1C[C@@H](Cc2ccccc2)N(CCc2ccc(Cl)c(Cl)c2)C1=N as listed: -19% | -6%
COc1ccc(CCNC2(C#N)CCCCC2)cc1OC as listed: -2% | -13%
COc1ccccc1CNc1ncncc1-c1ccoc1 as listed: -2% | -6%
CCSCCOC(=O)C1=C(C)NC(=O)NC1c1cc(OC)ccc1OC (configuration not stated) as listed: -15% | -24%
COc1ccc2c(CC(=O)OCC(=O)c3ccccc3OC)coc2c1 as listed: -10% | i

The results go on.
SMILES	Vaccinia Venus	VACV mCherry inh
Cc1ccc(C)c(CN2CCN(c3ncccn3)CC2)c1	-18%	-1%
Cc1onc(-c2ccccc2Cl)c1C(=O)OCC(=O)c1ccc2c(c1)OCCO2	u	u
Cc1cccc(NC(=O)CSc2nc3c(c(=O)[nH]2)CCC3)c1C	-10%	i
Cc1ccc(NC(=S)N/N=C/c2cccn2Cc2ccccc2F)cc1	-18%	u
Cc1ccc(C(=O)C2=C(O)C(=O)N(CCCN(C)C)C23C(=O)N(C)c2ccccc23)o1 (configuration not stated)	-1%	-4%
O=C(Nc1cccc(F)c1)c1ccc(Cn2cc([N+](=O)[O-])cn2)o1	-15%	-19%
O=C(/C=C/c1c(F)cccc1Cl)Nc1nn[nH]n1	-3%	i
O=S(=O)(CCSc1ccccn1)c1nc2ccccc2s1	-5%	-5%
O=c1cc(N2CCC(Cc3ccccc3)CC2)[nH]c(=O)n1C1CCCCC1	-26%	i[1.46 µM]
CC1(C)C(=O)NCCN1C(=O)CCC(=O)O	-16%	-13%
Nc1nc(NCc2ccc(Cl)cc2Cl)c2[nH]cnc2n1	-20%&-17%	-8%&0%
CC(C)(C)c1ccc(/C=C/C(=O)Nc2ccncc2)cc1	-26%	i
CCc1nnc(NS(=O)(=O)c2ccc(N3C(=O)c4ccc(C(=O)O)cc4C3=O)cc2)s1	1%	i
COC(CNC(=O)c1ccc2c(c1)ncn2-c1ccc(F)c(F)c1)OC	-24%	-20%
CS(=O)(=O)Nc1ccccc1C(=O)Nc1ccccc1C(=O)N1CCCC1	-8%	-10%
COCCn1c(SCC(=O)N2CCOCC2)nc2ccccc2c1=O	0%	3%
CN(CC(=O)Nc1cccc(S(=O)(=O)N(C)C)c1)Cc1ccccc1	-6%	-17%
O=C(COc1ccccc1[N+](=O)[O-])Nc1ccccc1N1CCCCC1	-21%	i
CCN1CCN(c2ccc(NC(=O)c3cccc(F)c3)cc2Cl)CC1	-4%	-14%
CSCCC(=O)N1C(C)CCCC1C(=O)O (configuration not stated)	-3%	x
COc1ccc(C2CC(c3ccc4ccccc4c3)=NN2C(=O)CNC2CCCCC2)cc1 (configuration not stated)	u	u
Cn1c(=O)[nH]c(=O)c2c1nc(N1CCC(Cc3ccccc3)CC1)n2Cc1ccccc1	-29%	-22%
CC(=O)NS(=O)(=O)c1ccc(NC(=O)C2C3C=CC(C3)C2C(=O)O)cc1 (configuration not stated)	10%	-12%
COc1ccc(NC(=O)CN2C(=O)C(c3ccccc3)=NC23CCCCCC3)cc1OC	-25%	-30%
COCCNC(=O)C(c1ccc(C)o1)N(Cc1cccs1)C(=O)c1snc(C(N)=O)c1N (configuration not stated)	-3%	i
Cc1ccc(S(=O)(=O)N(CC(=O)NC2CCCC2)c2cccc(C)c2)cc1	-1%	-13%
CC(C)(C)c1cc(N)on1	-6%	i
CCn1c(-c2ccccc2F)nc2cc(NC(C)=O)cc(C(=O)NC(c3ccccn3)C(F)(F)F)c21 (configuration not stated)	-29%	i
CC(C)c1ccc(NC2CCCN(C(=O)c3cc(C(C)C)nc(N)n3)C2)cc1 (configuration not stated)	-6%[7.34 µM]	u
OC[C@@H]1CN(Cc2ccncc2)C[C@H](n2cnc3c(N4CCCC4)ncnc32)O1	-4%	i
S=c1[nH]nc(-c2ccc(Cl)cc2)n1-c1ccc2c(c1)OCCO2	-16%	-15%
COc1ccc(C(CC(=O)N2CCCC(C)C2)c2c(OC)cc(OC)c3c(-c4ccccc4)cc(=O)oc23)cc1 (configuration not stated)	u	-6%
COc1cccc(CNC(=O)C2CCN(C(=O)c3cnn(-c4ccccc4)c3-n3cccc3)CC2)c1	-7%	-12%
CCCN(CCC)C(=O)Cn1c(=O)n(-c2ccc(CC)cc2)c(=O)c2ccc(C(=O)NCCc3ccccc3)cc21	-25%	-30%
CN1CCC(N2CCCC(C(=O)O)C2)CC1 (configuration not stated)	-9%	-10%
CCCc1cc(=O)n2[nH]c(C)c(-c3ccccc3)c2n1	u	x
O=C(Nc1cccc(Cl)c1)c1ccc2c(c1)SC1=NS(=O)(=O)CCN12	-19%	u
CC(=O)c1cccc(NC(=O)C2CCN(c3nnc(-n4cccc4)s3)CC2)c1	-15%	-12%
O=C(COc1ccc(Cl)cc1)N1CCN(C(=O)c2cccs2)CC1	-11%	-15%
CC(C)NC(=O)c1ccc(Cn2c(SCC(N)=O)nc3ccccc3c2=O)cc1	1%	-2%
COc1ccc(N=C(C)C2=C(O)CSC2=O)cc1	-17%	-17%
Cn1nc(Oc2nc(N3CCOCC3)nc(N3CCOCC3)n2)ccc1=O	-6%	-14%
CCOc1nc(NC(=O)NS(=O)(=O)Oc2cccc(Cl)c2)nc(-c2ccccc2)n1	-9%&1%	-15%&4%
COc1cccc(C(=O)NCC(c2ccc3c(c2)OCO3)N2CCOCC2)c1 (configuration not stated)	-2%	-12%
Cc1csc(SCC(=O)Nc2ccc3c(c2)OCCO3)n1	-4%	-22%
CC(C(=O)c1c[nH]c2ccccc12)N1CCc2ccccc2C1 (configuration not stated)	-4%	i
CC1(C)CC(=O)C(N=Nc2cc(Cl)c(Cl)c(Cl)c2)=C(O)C1	u	-18%
Cc1ccc(CNC(=O)C(C)C2Sc3ccccc3NC2=O)cc1 (configuration not stated)	0%	-9%
CC1(c2ccccc2)CC(C)(C)N(C(=O)CSc2nnc(N)s2)c2ccccc21 (configuration not stated)	-27%	-18%
Cc1ccc(C(=O)COC(=O)CCC(=O)Nc2cc(Cl)ccc2Cl)cc1[N+](=O)[O-]	-15%	x
CCOc1cccc(C(=O)N2CCC(c3nc4ccccc4s3)CC2)c1	0%	-13%
Cc1c(NC(=O)CSc2nnc(COc3ccccc3)n2-c2ccccc2)c(=O)n(-c2ccccc2)n1C	-17%	-15%
COc1cc(OC)c(C2=NOC(C(=O)Nc3c(C)n(C)n(-c4ccccc4)c3=O)C2)cc1Cl (configuration not stated)	3%	i
CCN(C[C@H]1N[C@@](C)(C(=O)OC)[C@H]2C(=O)N(C)C(=O)[C@@H]12)C(=O)c1ccc(C)cc1	-3%	-2%
COC(=O)c1cc(NC2(c3ccccc3)C(=O)c3ccccc3C2=O)cc(C(=O)OC)c1	9%	-7%
Cc1ccc(OCc2nnc(SCC(=O)Nc3ccc4c(c3)OCCO4)n2Cc2ccco2)cc1	u	x
COc1cc(NC(=O)C2CCCCC2)c(OC)cc1NC(=O)CN1CCCCC1	-22%	x
Cc1nc2c3ccccc3nc(SCC(=O)N3CC(C)CC(C)C3)n2n1 (configuration not stated)	-20%	i
CN(C)c1cc2c3ccccc3n(C)c2cc1N	-17%	i
O=C(NCCN1CCOCC1)c1ccc(-c2ccccc2)cc1	-7%	-8%

Additional compounds follow.
SMILES	Vaccinia Venus	VACV mCherry inh
COc1ccc(CNC(=O)Cn2c(=O)cc(C)c3c(C)nn(-c4cccc(Cl)c4C)c32)cc1	-1%	-2%
CC(C)C[C@@H](CN)NC(=O)c1nc[nH]c1C(=O)N[C@@H](Cc1ccccc1)C(=O)CNC[C@H](C)NC(=O)c1nc[nH]c1C(=O)N[C@@H](CC(C)C)C(=O)O	3%	i
COc1ccc2[nH]c(C)c(CCNC(=S)Nc3cc(C)cc(C)c3)c2c1	u	-20%
CCOC(=O)c1ccc(NC2=CC(c3ccc(Br)cc3)N(c3ccc(C(=O)OCC)cc3)C2=O)cc1 (configuration not stated)	-7%	-4%
COc1ccc(NC(=O)CSc2oc(-c3ccco3)nc2S(=O)(=O)c2ccc(C)cc2)c(OC)c1	-15%	-13%
CC1=C(C(=O)N2CCOCC2)CC(CC(=O)NC2CC2)C(=O)N1Cc1ccc(C(C)(C)C)cc1 (configuration not stated)	-5%	-8%
COc1ccc(-c2noc3c2-c2nc(C4CCCCC4)sc2CC3)cc1	-8%	-17%
N#Cc1nc(COc2ccccc2)oc1N1CCN(Cc2ccccc2)CC1	-16%	-16%
CCOCCCNC(=O)Cc1cc(=O)[nH]c(=O)[nH]1	-6%	-13%
COc1ccc(C(=O)CCC(=O)Nc2ccc(N3CCCCC3)cc2)cc1OC	-13%	u
Cc1cccc(NC(=O)[C@@H]2CCCN2C2=NS(=O)(=O)c3ccccc32)c1C	-6%	-16%
S=C(Nc1ccc(Cc2ccncc2)cc1)Nc1cccc(Cl)c1	-1%	i
COc1cc(C(=O)OCn2nnc3ccccc3c2=O)cc(OC)c1OC	-9%	-25%
CC1Oc2cc3oc4c(O)c(O)ccc4c(=O)c3c(O)c2C1(C)C (configuration not stated)	u	-25%
CCn1cc(C(=O)Nc2ccc(F)c(F)c2)cn1	-6%	-2%
CCc1c(C)nc(SC(C(=O)O)c2ccccc2)c(C#N)c1C (configuration not stated)	-7%	-13%
COC(=O)c1sc2ccccc2c1-n1cccc1C(=O)C(=O)Nc1ccc(F)cc1	-10%	x
O=C1[C@H]2[C@H](ON3CCCC[C@H]23)C(=O)N1c1cccc(C(F)(F)F)c1	-2%	-6%
CC1(C)Cc2c(sc3c2c(=N)n(Cc2ccco2)c(=O)n3CC(=O)Nc2ccc(Cl)cc2)CO1	0%	-5%
O=C(c1cccs1)N1CCCC1	0%	-3%
CC1CCCN(C(=O)CN2C(=O)c3ccccc3S2(=O)=O)C1 (configuration not stated)	-2%	-13%
O=C(Nc1cc(SCC(O)CO)cc([N+](=O)[O-])c1)c1ccc(-n2cnnn2)cc1 (configuration not stated)	-3%	-1%
Cc1cc(C)n(-c2ccc(F)cc2CN2CCN(C3CCCC3)C(CCO)C2)n1 (configuration not stated)	-2%	-11%
CC12CCC3c4ccc(O)cc4CCC3C1CC(=NO)C2O (configuration not stated)	-17%	-20%
O=C(Nc1ccc(N2CCCC2)cc1)c1cccc(Cl)c1Cl	-21%	u

Shown comma-delimited: part of the list above
mol,Vaccinia Venus,VACV mCherry inh
CCN1CCN(c2ccc(NC(=O)c3cccc(F)c3)cc2Cl)CC1,-4%,-14%
O=C(/C=C/c1c(F)cccc1Cl)Nc1nn[nH]n1,-3%,i
Cc1ccc(NC(=S)N/N=C/c2cccn2Cc2ccccc2F)cc1,-18%,u
O=c1cc(N2CCC(Cc3ccccc3)CC2)[nH]c(=O)n1C1CCCCC1,-26%,i[1.46 µM]
COc1cccc(C(=O)NCC(c2ccc3c(c2)OCO3)N2CCOCC2)c1 (configuration not stated),-2%,-12%
